Bioassay records (PubChem)
Lassa entry inh = qHTS for Inhibitors of binding or entry into cells for Lassa Virus | Potency, µM (top dose mostly 37.9 µM), for inactives: top-dose activity change, negative = inhibition, actives largely listed as inhibitors | Lassa virus pseudotype entry inhibition, cell reporter; control for the full effect not named in the record | hit rate 1.2% among 300,000 | AID 540256, 2011; active means well fitted inhibition curve with a large enough effect; inconclusive means small, poorly fitted or top-dose-only effect, or effect the other way; inactive means flat fitted curve, though single readings scatter; tested in HEK293 cells; also: % is scaled to controls: 0 for no effect and ±100 for the full control effect; nearly all actives have a fitted effect of over 50% in size; luciferase read-out
RE007 growth inh = qHTS Assay for Inhibitors of the HIV-1 protein Vpr. S. pombe RE007 Vpr strain, BacTiter-Glo ATP luminescence, 24 h; control for the full effect not named in the record. Potency, µM (titrated, usually from 92.2 µM), without a hit: at the highest dose activity change, negative = less growth. hit rate 0.21% among 360,000; active = well fitted falling curve with a large enough effect; inconclusive = small, poorly fitted or top-dose-only effect; inactive = no such curve, though single readings can be large or run the other way;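 also: % is scaled to controls: 0 for no effect and ±100 for the full control effect; nearly all actives have a fitted effect of over 50% in size; the assay follows cell death caused by Vpr and the record does not say whether a fall means rescue or toxicity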
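Fission yeast RE007 carrying one integrated HIV-1 vpr copy, seeded at OD 0.01 in PMG+AL medium with 23 nL pinned compound. Grown 24 h at 30 degrees; viability read by BacTiter-Glo luminescence after 5 min.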
SARS PLP yeast = qHTS of Yeast-based Assay for SARS-CoV PLP; S. cerevisiae expressing SARS-CoV PLpro, growth rescue; control for the full effect not named in the record; Potency, µM (titrated, usually from 32.9 µM), inactives show top-dose activity, positive = growth rescue; hit rate 0.19% among 330,000; AID 485353, 2010; active means well fitted rising curve with a large enough effect; inconclusive means small, poorly fitted or top-dose-only effect; inactive means no such curve, though single readings can be large or run the other way; also: 0% is about no effect; nearly all actives have a fitted effect of over 55% in size; growth read by luminescence after 48 h
2A StopGo = High Throughput Screening for Foot and Mouth Disease Virus Antivirals; human cells with a luciferase reporter of 2A StopGo recoding; control for the full effect not named in the record; Potency, µM (doses to about 57.9 µM), for the others: at the highest dose signal change, negative = less light; hit rate 1.2% among 410,000; AID 1159524, 2015; active = well fitted falling curve with a large enough effect; inconclusive = small, poorly fitted or top-dose-only effect; inactive = no such curve, though single readings can be large or run the other way; tested in HEK293T cells; also: % is scaled to controls: 0 for no effect and ±100 for the full control effect; nearly all actives have a fitted effect of over 45% in size; luciferase light after 4 h
Cruzain inh Det = qHTS Assay for Promiscuous and Specific Inhibitors of Cruzain (with detergent); Cruzipain (Trypanosoma cruzi), P25779; purified cruzain, Z-FR-AMC fluorescence, 0.01% Triton; Potency, µM, for inactives: max response, negative = inhibition, actives largely listed as inhibitors; hit rate 0.43% among 200,000;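 also: plate controls were neutral wells for no effect and buffer without enzyme for full effect; nearly all actives have a fitted effect of over 40% in size; top concentration of the series not given in the record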
Target sequence (P25779 123-467 limits assumed): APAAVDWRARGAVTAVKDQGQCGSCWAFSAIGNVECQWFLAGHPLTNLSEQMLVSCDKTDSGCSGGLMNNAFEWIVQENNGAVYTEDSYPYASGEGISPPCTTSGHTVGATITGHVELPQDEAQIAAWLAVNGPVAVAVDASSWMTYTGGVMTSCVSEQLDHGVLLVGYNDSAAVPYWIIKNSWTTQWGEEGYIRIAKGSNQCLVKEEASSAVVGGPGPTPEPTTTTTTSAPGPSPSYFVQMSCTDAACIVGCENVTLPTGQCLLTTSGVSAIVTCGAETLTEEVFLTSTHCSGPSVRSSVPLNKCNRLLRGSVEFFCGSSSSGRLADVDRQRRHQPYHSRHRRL
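Z-FR-AMC hydrolysis (2 uM substrate) by cruzain (1.5 nM) monitored kinetically at ex 360/em 450 nm after 15 min room-temperature compound exposure; 0.01% Triton X-100, pH 5.5, 5 mM DTT.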
MARV entry inh = qHTS for inhibitors of binding or entry into cells for Marburg Virus. Marburg virus pseudotyped entry inhibition, cell reporter; control for the full effect not named in the record; about a third of the inactives were read at about 46 µM. Potency, µM (doses to about 37.8 µM), for inactives: at the top dose activity change, negative = inhibition, most hits filed as inhibitors. hit rate 1.8% among 300,000. AID 540276, 2011; active = well fitted inhibition curve with a large enough effect; inconclusive = small, poorly fitted or top-dose-only effect, or effect the other way; inactive = flat fitted curve, though single readings scatter; tested in HEK293 cells; about a fifth of its hits are not listed in these tables; also: % is scaled to controls: 0 for no effect and ±100 for the full control effect; luciferase read-out
Cruzain noTriton = qHTS Assay for Promiscuous and Specific Inhibitors of Cruzain (without detergent). Cruzipain (Trypanosoma cruzi), P25779. purified cruzain, Z-FR-AMC fluorescence, no detergent. Potency, µM, for the others: max response, negative = inhibition, usual class: inhibitors. hit rate 2.3% among 200,000. AID 1476, 2009;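 also: plate controls were enzyme without inhibitor for no effect and buffer without enzyme for full effect; nearly all actives have a fitted effect of over 40% in size; top concentration of the series not given in the record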
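Purified cruzain at 1.5 nM, pre-incubated 15 min with compound at room temperature in 100 mM sodium acetate pH 5.5, 5 mM DTT, 0.00005% Triton X-100. Reaction started with 2 uM Z-FR-AMC; AMC fluorescence increase over 60 s gives rate.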
NS1 inh = qHTS Assay for Inhibitors of Influenza NS1 Protein Function. hit rate 0.4% among 270,000. Potency, µM (highest dose often 46.1 µM), for inactives: at the top dose activity, positive = more growth. S. cerevisiae slowed by influenza A NS1, growth recovery by OD600; active means well fitted rising curve with a large enough effect; inconclusive means small, poorly fitted or top-dose-only effect; inactive means no such curve, though single readings can be large or run the other way; also: nearly all actives have a fitted effect of over 50% in size
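S. cerevisiae expressing influenza A NS1, grown in glucose, washed, then diluted 1:100 into pH 6.0 -URA galactose medium with 23 nl compound. Growth recovery read as OD600; NS1-free strain serves as control.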
Active calls of the source: *; ? = inconclusive; . = no result given; & = joins results of further samples; [ ] = dose if it differs, or a comment. Unless noted, calls follow the shape of the dose curve; as a rule, active = well fitted curve in the direction sought with a large enough effect; inconclusive = small, poorly fitted or top-dose-only effect, or another doubt; inactive = no such curve, though single readings can be large; an effect the other way counts as inactive or inconclusive. Potency is read from the fitted curve at half-maximal effect.

SMILES	Lassa entry inh	RE007 growth inh	SARS PLP yeast	2A StopGo	Cruzain inh Det	MARV entry inh	Cruzain noTriton	NS1 inh
COc1ccc(/C=C2\C(=O)NC(=S)N2C(=O)c2ccc(C)cc2)cc1	15%	-2%	0%	-6%	-9.5%	?	?	-1%
CS(=O)(=O)Nc1ccc(C(=O)NCCSCc2c(F)cccc2Cl)cc1	-27%	-8%	-2%	-13%	.	-2%[46.1 µM]	.	?
COCCNC(=O)CSCc1c(F)cccc1Cl	20%	0%	1%	.	-4.4%	0%	-8%	-14%
COCCn1c(=NC(=O)CCS(=O)(=O)c2ccccc2)sc2c(OC)ccc(OC)c21	-3%	-7%	5%	-7%	.	3%	.	?
FC(F)(F)C12CC(c3ccccc3)=NCCN1CCN2 (stereo not drawn)	0%	-16%	-2%	25%	1.9%	?	?	-4%
O=C(CCl)N=c1sccn1Cc1ccc(Cl)cc1Cl	?	12%	-8%	?	.	?	.	.
COc1cccc(CNc2cc(CSc3ccc(Cl)cc3)nc(C)n2)c1	?	-13%	2%	13µM*	-21%	-8%	3%	-81%
CCC(=O)Nc1ccc(C(=O)CSc2nnc(-c3ccc(NS(C)(=O)=O)cc3)n2C)cc1OC	?	8%	3%	-14%	-3.1%	-2%	12%	3%
O=C(OC1CCN(c2ncc(C(F)(F)F)cc2Cl)CC1)c1cccc(C(F)(F)F)c1	-1%	-24%	2%	19%	5.0%	1%	-18%	8%
CCn1cc(C(=O)NCCC(=O)NC(C)C)c(=O)c2cc3c(cc21)OCO3	2%[46.1 µM]	4%	3%	4%	.	10%[46.1 µM]	.	5%
Cc1ccc(SCCN2CCN(Cc3ccccc3)CC2)cc1	.	-10%	-2%	-27%	.	.	.	-1%
Cc1ccc(C)c(S(=O)(=O)N2CCN(CC(=O)Nc3ccc4c(c3)CCC4)CC2)c1	?	12%	-10%	?	-6.4%	?	-6%	7%
O=C(COC(=O)CNC(=O)c1ccccc1)NC1CCCCC1	5%	5%	-2%	0%	.	?	.	.
CCc1cc2c(s1)NC(=O)CN=C2c1cccs1	?	9%	-3%	-12%	-1.4%	-5%	0%	-7%
Fc1ccccc1NC(=S)N1CCN(c2ccccn2)CC1	-14%	.	-3%	-5%	-1.9%	-4%	2%	15%
CCC1CCCCN1C(=O)CSc1nnc(-c2ccc(OC)cc2)o1 (stereo not drawn)	-10%	-19%	-20%	3%	-3.1%	-2%	-11%	-50%
Cc1cc(OC(C)C(=O)N2CCN(c3ccccc3)CC2)c2c(C)c(C)c(=O)oc2c1 (stereo not drawn)	.	4%	-2%	10%	.	.	.	-7%
CCOC(=O)C1=C(CSc2nc3ccccc3s2)NC(=O)NC1c1ccc(OC)cc1 (stereo not drawn)	?	-8%	-3%	.	-3.1%	?	25µM*	12%
CC(=O)c1ccc(Oc2ncnc3sccc23)c(CN2CCOCC2)c1	6%	-10%	8%	4%	-1.7%	1%[46.1 µM]	-9%	-2%
CCn1c(C)c(C2=CCN(S(=O)(=O)c3ccc(C)cc3)CC2)c2ccccc21	?	.	3%	-6%	-4.3%	?	?	9%
CCO[C@@H]1OC(C(=O)N2CCOCC2)=C[C@H](C2CCCCC2)[C@H]1CCCO	.	7%	-2%	3%	.	.	.	10%
COCCNS(=O)(=O)c1ccc2c(c1)oc(=O)c1cc(S(=O)(=O)NCCOC)ccc12	.	.	1%	.	-3.7%	1%	?	-3%
Cc1ccccc1Nc1nc(CSc2nnnn2-c2ccccc2)cs1	-17%	2%	-14%	?	1.0%	-26%	20µM*	9%
COc1ccc2[nH]c3c(c2c1)CCN1C(=O)N([C@@H](C)C(=O)NCc2ccccc2)C(=O)[C@]31C	.	4%	5%	-1%	.	.	.	21%
Fc1ccc(F)c(CN2CCN(c3ncccn3)CC2)c1	23%	-7%	0%	11%	3.0%	-1%	-6%	8%
O=C(C1CC1)N(CCN(Cc1ccccc1)C(=O)C1CC1)Cc1ccccc1	-11%	6%	3%	-17%	5.3%	-8%	-6%	-4%
COc1ccc(S(N)(=O)=O)cc1C(=O)NCC(C)(C)N1CCCCC1	6%	0%	14%	-13%	.	-3%[46.1 µM]	.	-2%
CC(=O)c1ccc(N2CCN(CC3CCCCC3)CC2)cc1	?	-16%	2%	-16%	.	-8%	.	5%
Cc1ccc(C(=O)NCCc2c[nH]c3ccccc23)s1	.	-10%	-2%	0%	.	?	.	-4%
CC(C)COc1ccc(C(=O)OCCN2CCCCC2)cc1	?	-15%	-2%	11%	.	?	.	8%
Clc1ccc(-c2nc3c4cnn(-c5ccccc5Br)c4ncn3n2)c(Cl)c1	18%[46.1 µM]	.	.	38%[activator]	-1.7%	-8%[46.1 µM]	-5%	.
Cc1cc(Br)cc(C)c1NC(=S)NC(=O)CC(C)C	2%	8%	?	4%	-6.3%	-16%[46.1 µM]	-1%	-7%
Cc1ccc(S(=O)(=O)N(C)CC(=O)N2CCN(c3ccccn3)CC2)cc1	-12%	7%	?	-7%	0.2%	6%	-3%	-1%
C=CCOc1ccc(-c2nc3c(c(=O)[nH]c(=O)n3CCCC)n2C)cc1OC	-20%	11%	-1%	-12%	.	-7%[46.1 µM]	.	1%
Cc1ccc(C(=O)N/C(=C/c2ccco2)C(=O)NC2CCS(=O)(=O)C2)cc1 (stereo not drawn)	5%[46.1 µM]	1%	-2%	-5%	.	?	.	.
COc1ccccc1CN1CCC(n2nccc2NC(=O)CCCc2ccccc2)CC1	.	0%	2%	-9%	.	.	.	8%
COc1cccc(/C=C(/C(=O)OCC(=O)NC2CCCCCCC2)c2ccccc2)c1	-8%	1%	3%	?	-7.3%	-12%	5%	1%
CCCCCCC(=O)Nc1ccc(C(=O)N2CCCC2)cc1	-37%[14.3 µM]	14%	16%	5%	5.5%	-4%	5%	0%
CC(Oc1ccc(Cl)cc1Cl)C(=O)NN=C1CCN(C)CC1 (stereo not drawn)	-14%	11%	-8%	-10%	0.5%	-3%	-11%	15%
Cc1ccccc1NC(=O)CCC(=O)N/N=C/c1c[nH]c2ccccc12	0%	-2%	-4%	-4%	.	17%[46.1 µM]	.	.
COc1ccccc1-n1c(SCC(=O)N2CCOCC2)nc(O)cc1=O	1%	5%	3%	-5%	.	?	.	?
COc1ccc2oc(=O)cc(C)c2c1	2%	-10%	11%	-12%	-0.3%	6%&6%	-6%	9%
COc1ccccc1CNC(=O)CN(C)S(=O)(=O)c1ccc(Br)s1	-3%	-3%	1%	-3%	.	-21%[46.1 µM]	.	-8%
O=c1oc2ccc(Cl)cc2cc1-c1ccccc1	0%	7%	11%	0%	0.9%	11%	?	8%
N#Cc1nc(N2CCOCC2)nc(N2CCOCC2)n1	1%	3%	12%	?	1.1µM*	?	1.3µM*	-10%
CCC1Oc2ccc(C)cc2N(CC(=O)NCC2COc3ccccc3O2)C1=O (stereo not drawn)	.	-5%	6%	-31%	-5.4%	8%	29%	-7%
O=C(c1ccc(C(=O)N2CCCCCC2)cc1)N1CCCCCC1	1%	6%	26%	8%	2.7%	1%	0%	14%
C=CCN1C(=O)/C(=C/c2ccccc2)S/C1=N/c1nccs1	?	2%	-10%	-15%	-6.6%	3%	-7%	15%
O=C(O)C1C2C=CC3(CN(c4cccc(C(F)(F)F)c4)C(=O)C13)O2 (stereo not drawn)	8%	-2%	1%	12%	2.8%	16%	-7%	3%
O=C(Nc1nnc(-c2ccccc2)o1)C1CCCCC1	.	-3%	5%	62%[activator]	0.3%	.	9%	-1%
Cc1nc2ccc(C(=O)O)cc2[nH]1	-2%	-5%	-1%	-2%	-0.3%	-7%	-10%	3%
COc1ccc(CN(C)CCc2ccccn2)c(OC)c1OC	0%	-13%	6%	0%	3.0%	13%&13%	2%	6%
CCN1C(=O)CC(N2CCN(c3ccc(C(=O)c4ccncc4)cc3)CC2)C1=O (stereo not drawn)	0%	-8%	0%	-21%	-10%	8%	-7%	-4%
NNC(=O)CCc1c[nH]c2ccccc12	-1%	-1%	-1%	-8%	-1.3%	15%	0%	17%[9.22 µM]
CC(C)NC(=O)c1ccc(OC2CSC2)cc1	-10%	10%	-6%	24%	1.4%	-12%	3%	-6%
Cc1ccc(-c2nn(CCC(=O)Nc3cccnc3)c(=O)c3ccccc23)cc1	-27%	-1%	0%	-20%	.	14%[14.2 µM]	.	-7%
CCCOc1ccc(C(=O)N2CCCc3ccccc32)cc1	?	14%[3.69 µM]	-31%	-3%	-3.8%	?	-7%	-95%
N#Cc1cncc(C#Cc2ccccc2)c1	4%[46.1 µM]	-9%	1%	15%	.	12%[46.1 µM]	.	-44%
CCOC(=O)C/C(C)=N/NC(=O)Nc1ccccc1	8%	-13%	9%	3%	-0.3%	4%	-6%	20%
CCNS(=O)(=O)c1ccc(CCC(=O)Nc2ccccc2C(=O)OC)cc1	4%	-12%	8%	6%	-2.7%	?	-20%	-5%
(next part)
SMILES	Lassa entry inh	RE007 growth inh	SARS PLP yeast	2A StopGo	Cruzain inh Det	MARV entry inh	Cruzain noTriton	NS1 inh
CC(C)C12CN3CCN(CC(C3)/C1=N\NC(=O)Nc1ccccc1)C2	13%	-17%	1%	-1%	-0.4%	25%	-12%	-4%
CCSc1ncnc2sc(C)c(C)c12	3%	-24%	-5%	4%	-6.1%	21%	2%	-9%
CCOC(=O)Nc1ccc2c(c1)nc(CN1CCN(C(C)=O)CC1)n2C	11%	-13%	1%	.	1.6%	?	-6%	-2%
Cc1ccc(/C=C2\SC(=O)N(CCNC(=O)C3CSC4(C)CCC(=O)N34)C2=O)cc1 (stereo not drawn)	16%[46.1 µM]	2%	-3%	5%	.	9%	.	.
O=C(c1nc2ccccn2c1CNCCOc1cccnc1)N1CCOCC1	1%[46.1 µM]	16%	-1%	9%	.	1%[46.1 µM]	.	5%
